PINK1 expr mod: changes PINK1 expression. PINK1 immunofluorescence, high-content cytometry, 24 h. Potency, µM (titrated, usually from 76.6 µM), for the others: at the top dose activation (PINK1 increase), usual class: activators. AID 624263. 410,000 compounds, 0.2% hits; active = well fitted activation curve with a large enough effect; inconclusive = small, poorly fitted or top-dose-only effect; inactive = flat fitted curve, though single readings scatter; cell line not stated here;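 further: potency means the concentration at half of the fitted maximal effect; % of control where 0% means no effect; nearly all actives have a fitted effect of over 65% in size; a mitochondrial uncoupler was the plate control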
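Decision-based qHTS: stable cells, 24 h exposure to five compound concentrations, CCCP as control. Fixed cells stained for PINK1 plus nuclear, mitochondrial and cell markers, cytometer read.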
CtBP-E1A blk: blocks the CtBP interaction with E1A | AlphaScreen GST-E1A/His-CtBP binding, 1536-well; active compounds read low; control for the full effect not named in the record | activity change, % (no concentration beside the values) | 340,000 compounds, 0.49% hits | AID 651724; in the data active means activity change below about -65%; inconclusive means about -30% to -65%; inactive means above about -30%; further: on the % scale 0 is the no-effect control and ±100 the full control effect
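Protein mix (5X: 125 nM each GST-E1A, His-CtBP) was incubated with pinned compound 2 h at 37 deg C in dark, in 50 mM Tris pH 8.0 buffer with 300 mM NaCl. Glutathione donor and nickel acceptor beads followed; AlphaScreen signal read after 1 h.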
Six1-Eya2 inh: inhibitors of human Six1/Eya2 interaction | Q15475+O00167 | AlphaScreen GST-Six1/His-Eya2 binding, biochemical; active compounds read low; control for the full effect not named in the record | 360,000 compounds, 0.56% hits | activity change, % (concentration not given with the values); in the data active = activity change below about -65%; inconclusive = about -30% to -65%; inactive = above about -30%; further: on the % scale 0 is the no-effect control and ±100 the full control effect
Target sequence (O00167 whole entry, looked up): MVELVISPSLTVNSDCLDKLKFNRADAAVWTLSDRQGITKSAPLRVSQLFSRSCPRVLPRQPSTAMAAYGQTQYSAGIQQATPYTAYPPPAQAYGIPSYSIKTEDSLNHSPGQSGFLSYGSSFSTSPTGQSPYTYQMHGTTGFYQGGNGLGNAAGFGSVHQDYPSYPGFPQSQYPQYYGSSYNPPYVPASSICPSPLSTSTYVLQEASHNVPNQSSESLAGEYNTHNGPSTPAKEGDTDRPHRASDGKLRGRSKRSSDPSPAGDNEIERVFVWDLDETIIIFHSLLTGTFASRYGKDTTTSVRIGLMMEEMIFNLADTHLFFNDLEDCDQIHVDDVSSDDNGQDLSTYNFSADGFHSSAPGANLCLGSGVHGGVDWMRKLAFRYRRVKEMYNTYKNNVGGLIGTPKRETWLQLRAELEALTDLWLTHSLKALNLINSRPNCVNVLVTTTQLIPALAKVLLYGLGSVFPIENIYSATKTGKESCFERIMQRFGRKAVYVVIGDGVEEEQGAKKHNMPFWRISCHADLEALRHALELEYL
Target sequence (Q15475 whole entry, looked up): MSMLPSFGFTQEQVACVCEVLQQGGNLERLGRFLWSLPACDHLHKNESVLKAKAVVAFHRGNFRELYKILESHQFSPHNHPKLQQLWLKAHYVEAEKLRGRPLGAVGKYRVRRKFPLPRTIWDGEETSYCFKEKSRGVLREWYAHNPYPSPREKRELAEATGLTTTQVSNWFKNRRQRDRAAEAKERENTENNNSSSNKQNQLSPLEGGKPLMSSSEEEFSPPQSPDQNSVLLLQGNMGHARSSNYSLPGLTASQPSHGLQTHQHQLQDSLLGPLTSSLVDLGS
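AlphaScreen luminescence read after one hour at 37 °C in darkness. Pin-transferred compounds met GST-Six1 and His-Eya2 protein (5X stock 250 nM/500 nM) plus glutathione donor and Ni-chelate acceptor beads (5X, 50 ug/mL).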
D2 potentiator: positive allosteric modulators of human D2 dopamine receptor; DiscoveRx D2 beta-arrestin cells, luminescence, 90 min; 100% = 57 uM dopamine signal; potentiation, % (concentration not given with the values); 360,000 compounds, 0.23% hits; AID 624464; active = potentiation of 50% or more; inconclusive = 30% to 50%; inactive = 30% or less;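 further: tested on top of an EC20 dose of dopamine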
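PathHunter beta-arrestin assay in DiscoveRx D2 cells. Compounds were added with an EC20 of dopamine (50 nM final) for 90 min at 37 deg C. Luminescence was read 1 h after detection reagent, with 57 uM dopamine as the EC100 control.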
TRPML1 ag: agonists of human TRPML1 channel; activation, % (test concentration not listed); TRPML1-expressing cells, Ca2+ dye fluorescence, FDSS; host cell line not named in the record; reference of the full effect not given here; 410,000 compounds, 0.12% hits; Q9GZU1; in the data active = activation above about 50%; inconclusive = about 30% to 50%; inactive = below about 30%; further: 0% is about no effect; the text of the record puts the active cut at 80%
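Kinetic FDSS Ca2+ read in Tet-induced TRPML1-DL cells (ABD Ca8 dye plus quencher, 45-90 min RT loading): baseline, then compound, then 110 s agonist window; EC80 agonist 54-4 at 4uM final added afterwards for a 110 s antagonist window.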
D2 ag: activates the human D2 dopamine receptor; DiscoveRx PathHunter D2 beta-arrestin, luminescence, 90 min; 100% = 57 uM dopamine signal; activation, % (no concentration beside the values); 360,000 compounds, 0.084% hits; in the data active = activation above about 40%; inconclusive = about 15% to 40%; inactive = below about 15%; further: compound concentration not given in the record; the text of the record calls up to 30% inactive
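Agonist mode: compounds alone added to overnight-plated D2 PathHunter cells for 90 min at 37 C, with 57 uM final dopamine (EC100) defining full response. Beta-arrestin recruitment detected by chemiluminescent reagent, read after 1 h at ambient temperature.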
Numbers without * were called inactive; ? = inconclusive; nt = not tested or not shown; & = joins results of further samples; [ ] = remark or other dose.

SMILES	PINK1 expr mod	CtBP-E1A blk	Six1-Eya2 inh	D2 potentiator	TRPML1 ag	D2 ag
Cc1c(CN2CCC(n3nccc3NC(=O)c3cccc(F)c3)CC2)cnn1C	-0.4%	-0.4	-1.2	-6.8	0.7	2.2
Cc1ccc(NC(=O)CN2C(=O)C3C4C=CC(C4)C3C2=O)cc1S(=O)(=O)N(C)C (stereo not drawn)	1.0%	-17.2	-2.5	-16.9	0.8	-2.5
COc1ccc(CNC(=O)CN(C(=O)CCC(=O)Nc2nccs2)c2cccc(C)c2)cc1	-0.2%	-1.6	10.4	-4.2	3.3	-1.5
CC1CC(C)CN(C(=O)COC(=O)c2cncc(Br)c2)C1 (stereo not drawn)	1.0%	0.3	-0.2	-1.7	1.2	-2.3
COc1ccc(C(=O)COC(=O)/C=C/c2ccccc2)cc1	4.7%	-2.9	-2.2	-1.7	-0.3	2.3
COc1cc(/C=C2\SC(=S)N(CC(=O)Nc3ccc(O)cc3)C2=O)cc(OC)c1OC	0.8%	nt	-7.1	-4.3	-0.2	-2.7
O=C(NCc1cc(Cl)cc(Cl)c1)c1csc([C@@H]2C[C@H](O)[C@@H](CO)O2)n1	4.2%	-8.5	14.5	0.0	0.5	-1.3
CCCOc1ccc(N2C(=O)CC(N(O)c3ccccc3)C2=O)cc1 (stereo not drawn)	4.5%	-7.8	5.2	?	0.6	4.9
C/C(=N/NC(=S)Nc1ccccc1)c1ccc2c(c1)OCO2	-2.8%	-8.0	?	-9.8	-1.0	0.2
CCOC(=O)[C@]12CCCC=C1N(Cc1ccc(Cl)cc1Cl)C(=O)[C@H](CC(=O)NCC13CC4CC(CC(C4)C1)C3)C2	5.7%	-0.1	-1.7	nt	-0.4	nt
Cc1cc(C)c(OCC(=O)N/N=C/c2ccc3c(c2)OCO3)c(C)c1	3.8%	1.7	-11.4	-7.1	1.8	-4.4
CCC(=O)Nc1nnc(S(=O)(=O)N(CC)c2ccc(Cl)cc2)s1	3.2%	nt	2.8	2.0	0.5	-0.4
COc1cccc(C(=O)N(Cc2ccc(N(C)C)cc2)C2CCS(=O)(=O)C2)c1 (stereo not drawn)	-0.3%	0.0	-0.3	3.3	0.1	-2.8
Cc1cc(NC(=O)NN2CCOCC2)nn1-c1c(Cl)cc(Cl)cc1Cl	0.5%	nt	-5.6	-15.2	0.0	-5.7
CCOc1cc(CNC(=O)CN2C(=O)c3ccccc3S2(=O)=O)ccc1OC	0.5%	-1.5	6.1	3.6	-0.8	1.9
CN(CC(=O)Nc1cccc(F)c1)C(=O)c1ccc(N2CCCCCC2)c([N+](=O)[O-])c1	1.3%	-15.2	-22.6	-5.4	2.2	-6.5
COc1ccc([C@H]2/C=C\CN(C(=O)c3ccc(C)cc3)[C@@H](C)C(=O)N2Cc2ccc(F)cc2)cc1	6.6%	-4.8	-7.5	-15.6	0.8	-2.4
C/C(=N/NC(=O)c1ccoc1C)c1ccc(NC(=O)c2ccncc2)cc1	9.4%	0.1	-0.9	-4.3	0.0	-0.3
Cc1nn(CCCC(=O)N2CCN(c3ccc(F)cc3)CC2)c(C)c1[N+](=O)[O-]	1.3%	-1.6	7.4	-0.6	1.2	1.0
O=C(COC(=O)CCC(=O)c1ccccc1)Nc1nnc(-c2ccccc2)o1	1.4%	1.3	?	-3.9	-0.1	-2.9
OCC1CCCN(C(=S)NCCc2ccccc2)C1 (stereo not drawn)	0.3%	3.4	5.8	-1.9	-0.5	1.1
COc1ccc(-c2csc(C(O)(c3ccccc3)C(F)(F)F)n2)cn1 (stereo not drawn)	12.0%	2.6	6.0	-12.4	-0.5	7.8
NS(=O)(=O)c1ccc(CCNC(=O)CN2CCN(c3ccccc3F)CC2)cc1	1.8%	1.1	2.9	-3.3	-0.1	0.8
O=C(NCc1ccc(F)cc1)c1cccnc1	0.3%	3.6	2.6	-14.0	-0.9	-7.8
Cc1cccc(NC(=O)CSCC(=O)Nc2nnc(C3CC3)s2)c1	0.3%	5.3	3.2	-14.1	1.5	0.1

Some of these compounds in order of the PINK1 expr mod value, falling:
canonical_smiles	PINK1 expr mod	CtBP-E1A blk	Six1-Eya2 inh	D2 potentiator	D2 ag
O=C(COC(=O)CCC(=O)c1ccccc1)Nc1nnc(-c2ccccc2)o1	1.4%	1.3	?	-3.9	-2.9
CN(CC(=O)Nc1cccc(F)c1)C(=O)c1ccc(N2CCCCCC2)c([N+](=O)[O-])c1	1.3%	-15.2	-22.6	-5.4	-6.5
CCOc1cc(CNC(=O)CN2C(=O)c3ccccc3S2(=O)=O)ccc1OC	0.5%	-1.5	6.1	3.6	1.9
COc1ccc(CNC(=O)CN(C(=O)CCC(=O)Nc2nccs2)c2cccc(C)c2)cc1	-0.2%	-1.6	10.4	-4.2	-1.5

(list continues)
SMILES	PINK1 expr mod	CtBP-E1A blk	Six1-Eya2 inh	D2 potentiator	TRPML1 ag	D2 ag
COc1ccc(C(=O)CC(=O)C(=O)Nc2ccccc2)cc1	-0.8%	0.0	19.3	-7.0	-0.3	-1.6
CC(=O)Nc1ccc(S(=O)(=O)NCCC(=O)OCC(=O)NCc2ccccc2)cc1	0.6%	-0.2	-7.7	-7.0	-0.6	-1.2
CN(C)CCCN(C(=O)c1ccc(S(=O)(=O)N2CCCCCC2)cc1)c1nc2c(F)cccc2s1	4.4%	-22.8	-20.4	-19.7	0.1	1.9
Cc1ccc(OCCOc2ccc(Br)cc2)c([N+](=O)[O-])n1	3.1%	8.7	3.3	-20.8	2.5	-2.0
O=C(/C=N/O)Nc1ccccc1C(=O)O	6.0%[38.3 µM]	-3.3	-3.9	-3.9	-0.1	0.8
COc1ccccc1N1CCN(c2nc(N)c(C#N)c(CC#N)c2C#N)CC1	-1.0%	-6.4	-1.0	?	-0.5	8.2
O=C(NCCc1ccccn1)C1CCN(S(=O)(=O)c2ccc3ccccc3c2)CC1	-0.7%	-10.6	1.1	-2.7	0.3	-1.1
CCOc1ccccc1NS(=O)(=O)c1ccc(Br)s1	4.9%[38.3 µM]	1.1	8.5	-7.3	1.0	-2.6
CN(c1ccccc1)S(=O)(=O)c1cccc(NC(=O)c2ccc3ncsc3c2)c1	-0.6%	-19.3	-25.7	10.6	1.3	?
c1ccc(-n2ncc3c(N4CCCC4)ncnc32)cc1	-0.7%	-0.4	-3.3	6.3	-1.1	-0.1
O=S(=O)(NCc1ccccc1)c1ccc(Cl)c(S(=O)(=O)NCc2ccccc2)c1	-2.1%	3.8	1.8	-9.2	0.2	-4.4
CN(CC(=O)Nc1ccc(F)cc1)C(=O)Cn1cnc2ccc(Cl)cc2c1=O	3.4%	1.3	4.0	-3.6	0.0	-2.6
COc1ccc(OC(=O)CCCN2C(=O)c3ccccc3C2=O)cc1	-5.2%[38.3 µM]	5.8	7.1	-7.1	0.9	0.9
CCn1cnc2cc(NCc3ccc(Br)cc3)ccc21	-0.9%	-15.3	-18.7	-9.7	2.7	2.5
CC(=O)c1nn(-c2cccc(C(F)(F)F)c2)c(=O)[nH]c1=O	1.1%	5.8	-5.5	3.1	-0.2	1.3
CCN(CC)c1ccc(NC(=O)Nc2ccccc2)cc1	0.0%	?	-5.5	4.1	-0.2	2.0
S=C(NCCc1ccccc1)N1CCN(C(c2ccccc2)c2ccccc2)CC1	-3.1%	11.0	6.7	-2.2	-0.1	2.9
COC(=O)c1ccc(C2C3=C(Nc4nnnn42)c2ccccc2OC3)cc1 (stereo not drawn)	2.3%	6.9	-0.1	1.9	0.2	-4.9
Cc1ccc(S(=O)(=O)NCCC(=O)NC2CCCCC2)cc1	1.3%	0.9	1.5	-20.5	0.3	-0.1
O=C(c1cnn2c(C(F)(F)F)cc(-c3ccc(Br)cc3)nc12)N1CCOCC1	-0.1%	12.6	6.2	7.3	-1.6	-4.7
N#C/C(=C/c1cn(-c2ccccc2)nc1-c1cccc(S(=O)(=O)N2CCCC2)c1)C(=O)NCc1ccco1	12.2%	7.0	-17.7	-3.0	4.2	-5.0
CCO[C@H]1OC(C(=O)N2CCN(Cc3ccccc3)CC2)=C[C@@H](c2cn(C(C)=O)c3ccccc23)[C@@H]1CCCO	1.2%	-13.1	-5.4	-9.7	1.3	4.7
CCCCNc1nc(-c2ccccc2)nc(-n2ccnc2)n1	0.6%	6.2	2.6	6.3	-1.4	-6.0
Fc1ccccc1CNc1nc(-c2cccnc2)nc2ccccc12	20.2%	?	?	-4.2	9.3	0.6
COc1cc(-c2nc(-c3ccc(NC(=O)c4ccc5c(c4)OCO5)cc3)no2)cc(OC)c1OC	1.6%	-0.1	-1.4	18.0	1.5	7.0

(further entries)
SMILES	PINK1 expr mod	CtBP-E1A blk	Six1-Eya2 inh	D2 potentiator	TRPML1 ag	D2 ag
Cn1c(N)c(N2CCCCC2)c(=O)n(CC(=O)Nc2cccc(C#N)c2)c1=O	1.6%	1.4	-3.2	-9.5	-0.6	-2.9
CCOC(=O)c1ccc(Nc2nc(C)cc(C)c2C#N)cc1	1.7%[38.3 µM]	20.0	4.5	-13.0	3.1	-1.6
Cn1c(N2CCC(C(N)=O)CC2)nc2c1c(=O)n(Cc1ccc(Cl)cc1)c(=O)n2C	8.5%[38.3 µM]	-11.4	-5.5	0.7	0.1	-2.3
Cn1c(=O)cc(OCCCC(=O)N2CCN(c3ccccc3)CC2)c2ccccc21	-5.2%[38.3 µM]	-4.8	-7.0	-9.2	1.1	-1.7
CCOc1cc(/C=C2\C(=O)N(c3cccc(C(F)(F)F)c3)C(=O)c3ccccc32)ccc1O	-2.8%	7.9	2.5	-4.1	2.0	0.2
CCN(CC)S(=O)(=O)c1ccc(-c2cn3ccc(C)cc3n2)cc1	8.7%	nt	-1.2	56.0*	nt	11.3
O=C(CSc1nnc(CNC(=O)c2c(F)cccc2F)o1)NCc1ccccc1	4.9%	4.1	-0.5	9.2	0.1	0.3
O=C(Nc1ccc(Cl)cc1-c1nc2ccccc2s1)c1ccco1	11.1%	14.3	16.0	0.3	0.9	-0.5
CCCCCn1c(=O)[nH]c2cc(C(=O)N3CCN(c4ccccc4F)CC3)ccc2c1=O	3.7%&0.3%	-0.1	0.4	-3.9	0.0&-0.3	-2.6
COc1cc2ccccc2cc1C(=O)N(CCN(C)C)c1nc2c(F)cc(F)cc2s1	7.8%	-18.9	-25.1	-24.6	-0.2	-2.7
CCOc1cc(NC(=S)NCC2CCCO2)c(OCC)cc1NC(=O)c1ccccc1C (stereo not drawn)	-0.7%	-14.2	-17.6	-15.2	0.0	-0.6
CS(=O)(=O)N1CCN(c2ccnc3cc(Cl)ccc23)CC1	-1.3%	-16.8	2.0	1.8	1.8	0.4
CC(=O)Nc1ccc(S(=O)(=O)NC2=NCN(c3ccc([N+](=O)[O-])cc3)CN2)cc1	2.5%	-9.1	5.3	-9.4	0.3	-1.6
Cc1cc(NCCN2CCOCC2)c2ccc3ccccc3c2n1	1.4%	-14.2	-20.7	-8.0	1.7	-0.9
CCc1nnc(NC(=O)CCC(=O)N2CCN(c3cc(Cl)ccc3C)CC2)s1	0.8%	-6.7	-5.3	-24.4	-1.4	-2.2

Two compounds drawn at random from those above, as already listed:
SMILES	PINK1 expr mod	CtBP-E1A blk	Six1-Eya2 inh	D2 potentiator	TRPML1 ag	D2 ag
O=C(NCc1ccc(F)cc1)c1cccnc1	0.3%	3.6	2.6	-14.0	-0.9	-7.8
CCn1cnc2cc(NCc3ccc(Br)cc3)ccc21	-0.9%	-15.3	-18.7	-9.7	2.7	2.5

From PubChem BioAssay

Outcome played no part in choosing rows; overall some 1.3% were active at least once.
